Compound activity from PubChem BioAssay.
A1 inh = caspase 3/7 activation in MEF A1-2A-BIM cells, primary screen, A1 inhibitor project, cell-based, luminescence, HTS; Caspase-Glo 3/7 luminescence, 3 h; percent of clofoctol response, vehicle zero; 330,000 tested, 0.066% active; AID 2462, 2010; caspase activation, % (no concentration beside the values);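 active means over half of replicate activation scores above 10%, or exactly half above 10 with the replicate mean above 10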;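 further: wells of about 30 µL received 50 nL stock; many hits fall short of the cut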
Ecoli growth = E. coli growth inhibition, primary screen, OD600. OD600 absorbance (no concentration beside the values). Escherichia coli growth, 23 h; active compounds read low. 330,000 tested, 0.21% active;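 active means OD600 absorbance below the run mean of sample wells minus 3.6 SD, in any replicate, cut at about 0.56 in these data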;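 further: stock transfer was 300 nL into about 60 µL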
T cruzi inh = inhibitors of intracellular T. cruzi growth, primary screen, luminescence, NIH3T3 host cells; T. cruzi beta-gal in NIH3T3, 90 h; inhibition, % (test concentration not listed); 300,000 tested, 1.4% active; AID 1885, 2009;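 active means mean inhibition across valid replicates above about 55%, limit read from the data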;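 further: signal also drops with host cell toxicity which is not excluded here; 0% = plate median of DMSO wells and 100% = zero luminescence signal; higher percent means less beta-gal luminescence so fewer parasites; stock transfer was 50 nL into about 50 µL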
FGF22 binding = binders of human FGF22 protein, primary screen, FGF22 synaptogenesis inhibitor project, biophysical, thermal shift, single point | calls only at 9.99 µM | AID 651658, 2012 | recombinant FGF22 thermal shift, SYPRO orange fluorescence; percent of sucrose octasulfate shift, DMSO zero | Fibroblast growth factor 22 (Homo sapiens), Q9HCT0 | 340,000 tested, 1.5% active;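 active means melting point raised past a set limit in the mean and every replicate; three in four hits are not shown here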
Target sequence (Q9HCT0 whole entry, looked up): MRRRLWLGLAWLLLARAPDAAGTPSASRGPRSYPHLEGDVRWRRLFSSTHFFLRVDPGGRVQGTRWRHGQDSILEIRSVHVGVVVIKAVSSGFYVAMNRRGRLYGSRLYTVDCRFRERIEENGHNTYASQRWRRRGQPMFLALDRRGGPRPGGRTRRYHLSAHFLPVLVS
Beta apoptosis = inhibitors of cytokine-induced beta cell apoptosis, primary screen, luminescence; INS-1E cytokine-induced death, ATP luminescence, 48 h; percent of positive-control rescue, neutral wells zero; AID 435005, 2010; protection from apoptosis, % (concentration not given with the values); 300,000 tested, 0.8% active;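 active means all replicates at 75% or more, or half of them and the mean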;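 further: 0% = cytokine-treated negative control wells and 100% = positive control rescue; higher means more ATP so stronger rescue from cytokine killing; wells of about 40 µL received 100 nL stock; the first replicate is given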
AF4-AF9 inh = inhibitors of AF4 peptide binding to AF9, primary screen, biochemical, AlphaScreen, biotin-AF4 peptide, FLAG-AF9, single point | inhibition, % at 10 µM | 350,000 tested, 0.47% active | AID 651704, 2012;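 active means every replicate reaching a set inhibition limit, whatever the replicate mean, cut at about 25% in these data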;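 further: 0% = plate neutral control median and 100% = total signal loss; the record names both 10 and 1 µM as test concentration; the first replicate is given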
Target sequence (P42568 whole entry, looked up): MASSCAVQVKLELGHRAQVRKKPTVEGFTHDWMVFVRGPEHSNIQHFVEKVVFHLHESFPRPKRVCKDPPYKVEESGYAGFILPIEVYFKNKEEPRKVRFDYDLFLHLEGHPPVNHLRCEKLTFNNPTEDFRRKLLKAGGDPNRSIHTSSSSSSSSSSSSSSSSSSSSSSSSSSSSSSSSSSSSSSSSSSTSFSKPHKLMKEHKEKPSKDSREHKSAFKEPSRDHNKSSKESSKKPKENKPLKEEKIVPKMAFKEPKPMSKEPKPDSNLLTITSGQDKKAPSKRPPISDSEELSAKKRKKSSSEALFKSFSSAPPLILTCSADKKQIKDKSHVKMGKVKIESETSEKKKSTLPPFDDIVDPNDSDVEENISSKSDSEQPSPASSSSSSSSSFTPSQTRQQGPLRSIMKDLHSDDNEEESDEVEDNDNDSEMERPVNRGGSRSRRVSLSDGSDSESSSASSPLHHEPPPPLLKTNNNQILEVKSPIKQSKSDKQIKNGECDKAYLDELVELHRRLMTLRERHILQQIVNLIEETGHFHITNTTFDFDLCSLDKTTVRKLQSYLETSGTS
rRNA inh HTS = reduced GFP signal of wild-type E. coli, primary screen, bacterial rRNA inhibitor project, GFP/RFP fluorescence, OD600, single point; E. coli WT GFP vs humanized-ribosome RFP mutants, 24 h; active compounds read low; DMSO median 0, no signal -100; GFP signal change (wild-type ribosome), % (concentration not given with the values); 350,000 tested, 1.6% active;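 active means significant combined selectivity score with lowered wild-type GFP, culture density cut under 30%, mutant RFP and density less affected; inactive means any of these conditions unmet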; further: one replicate is shown; some compounds called inactive have numbers as strong as hits
UCH37 DUB inh = inhibitors of human UCH37 deubiquitinase, primary screen, biochemical, Ub-AMC cleavage, fluorescence. inhibition, % (no concentration beside the values). purified proteasome/UCH37. 330,000 tested, 0.33% active. Ubiquitin carboxyl-terminal hydrolase isozyme L5 (Homo sapiens), Q9Y5K5;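 active means mean of two replicates above 20%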;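 further: 0% = compound-free wells with enzyme and 100% = wells lacking proteasome; stock transfer was 100 nL into about 20 µL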
Target sequence (Q9Y5K5 whole entry, looked up): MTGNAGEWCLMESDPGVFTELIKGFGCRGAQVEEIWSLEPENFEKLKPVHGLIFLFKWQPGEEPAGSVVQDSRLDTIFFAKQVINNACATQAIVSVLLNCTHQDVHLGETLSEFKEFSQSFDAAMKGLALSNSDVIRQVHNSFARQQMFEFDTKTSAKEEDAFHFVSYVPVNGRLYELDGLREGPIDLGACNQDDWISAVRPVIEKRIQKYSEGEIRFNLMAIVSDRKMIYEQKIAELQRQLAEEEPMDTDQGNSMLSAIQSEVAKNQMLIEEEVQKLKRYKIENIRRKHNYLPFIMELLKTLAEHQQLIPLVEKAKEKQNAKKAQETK
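Assay system: Proteasome-bound UCH37. Buffer or medium: pH 7.4 Tris-HCl (50 mM) with ovalbumin, ATP-MgCl2, DTT. Incubation: 30 min preincubation with enzyme, 25 min cleavage at room temperature. Measured by: fluorescence, ex 355 nm, em 460 nm. Read-out basis: percent inhibition. Control set: wells without proteasome as full block, compound-free enzyme plus substrate as uninhibited.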
rRNA inh HTS OD600 = recorded beside rRNA inh HTS, whose call it bears; OD600 change, %; measured here: OD600 growth;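 optical density of the mix in the first replicate; 0 = DMSO median and -100 = no signal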
rRNA inh HTS RFP = also measured in rRNA inh HTS; calls as there; RFP signal change, %; measured here: RFP humanized mutant strains;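 first replicate; 0 = DMSO median and -100 = no signal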
* hit, by the source's call; i = inactive; · = no result given.

SMILES	A1 inh	Ecoli growth	T cruzi inh	FGF22 binding	Beta apoptosis	AF4-AF9 inh	rRNA inh HTS	rRNA inh HTS OD600	rRNA inh HTS RFP	UCH37 DUB inh
COc1ccc2[nH]c3c(c2c1)CCN1C(=O)N([C@@H](C)C(=O)NCc2ccc(C)cc2)C(=O)[C@]31C	-0.2	0.667	-6.7	i	-2.9	0.3	·	·	·	0.3
O=C(CSc1ccccc1)N/N=C/c1ccccc1O	0.1	·	3.6	i	-2.8	0.4	-18.6*	3.2*	7.1*	·
CCCCCCSc1ccc([C@@H]2[C@H]3C(=O)N(C)C(=O)[C@H]3[C@]3(C(=O)OC)CCCCN23)cc1OC	0.8	·	·	i	9.9	-3.5	4.0	-4.8	-3.3	0.3
CN1CCN(c2ccccc2NC(=O)COc2ccc(Cl)cc2)CC1	-0.2	0.67	16.4	i	-2.6	4.3	-1.5	-0.7	4.0	0.8
Cc1cc(C)n(-c2nnc3n2N=C(c2c[nH]c4ccccc24)CS3)n1	0.6	0.739	-0.7	·	-4.6	·	·	·	·	4.9
C=CCn1c(NS(=O)(=O)c2ccccc2)c(S(=O)(=O)c2ccc(C)cc2)c2nc3ccccc3nc21	-0.2	0.669	2.7	i	-0.7	1.8	2.7	6.6	-0.8	i
Cn1c(NCc2ccco2)nc2c1c(=O)n(Cc1ccc(Br)cc1)c(=O)n2C	-0.8	0.705	0.8	·	·	·	·	·	·	2.8
CCOC(=O)c1cc(C)sc1NC(=O)c1ccc(Cl)s1	-0.3	0.757	2.0	·	4.7	·	·	·	·	-29.6
COCCNC(=O)CSc1nc(-c2ccccc2)cs1	-0.6	0.631	-9.7	·	-8.5	·	·	·	·	-0.2
CSc1cccc(NC(=O)/C=C/c2ccc(Cl)cc2)c1	-2.2	0.678	-0.7	·	-7.8	·	·	·	·	0.3
O=C(c1ccc(S(=O)(=O)N2CCOCC2)cc1)N(c1cccc(Cl)c1)C1C=CS(=O)(=O)C1 (centres undefined)	-0.4	0.679	10.3	i	3.0	-0.5	8.5	9.2	-1.0	-1.8
Cc1cc(C)cc(-n2cccc2/C=C2/C(=N)N3C(=NC2=O)SN=C3S(C)(=O)=O)c1	1.6	0.708	-12.1	i	2.0	2.4	-27.6*	-20.8*	6.8*	1.7
CCOC(=O)NC(C(Cl)(Cl)Cl)S(=O)(=O)c1ccccc1 (centres undefined)	0.3	0.673	-28.4	i	-11.3	1.5	1.6	0.5	-0.7	3.1
CC1OC(OC2C(CO)OC(OC3C(CO)OC(O)C(O)C3O)C(O)C2O)C(O)C(O)C1N[C@@H]1C=C(CO)[C@@H](O)C(O)[C@H]1O (some centres undefined)	0.4	·	-12.9	i	-1.1	4.6	1.2	-4.3	0.6	5.0
N/C(Cc1ccc(Cl)cc1Cl)=N\OC(=O)c1ccccc1F	-0.9	0.661	1.3	i	-9.9	0.5	3.0	5.1	-1.5	1.9
CCCN(C(=O)COC(=O)CCOc1ccc(C)cc1)c1c(N)n(Cc2ccccc2)c(=O)[nH]c1=O	-0.2	0.657	-10.2	i	-3.6	0.6	2.6	11.7	-3.3	0.4
CNS(=O)(=O)c1cn(CC(=O)NCc2ccc(F)cc2)cc1S(=O)(=O)NC	-0.2	0.658	-13.0	i	-2.0	-4.0	6.4	16.4	0.7	0.5
CC(c1ccccc1)n1c(CCCO)nc2ccccc21 (centres undefined)	4.1	0.707	5.1	·	-4.4	-1.6	3.3	1.0	-1.6	3.5
Cc1ccc2nc(SCC(=O)c3cc(C)n(C)c3C)[nH]c2c1	-0.1	0.717	3.2	·	8.9	·	·	·	·	0.5
CC(=O)c1c(C)[nH]c(C(=O)OCC(=O)N2CC(=O)Nc3ccccc32)c1C	-0.2	0.647	-11.5	·	-7.5	·	·	·	·	2.3
O=C(NCC(c1ccco1)N1CCN(c2ccc(F)cc2)CC1)c1ccc2c(c1)OCO2 (centres undefined)	1.3	0.702	14.5	i	5.6	2.6	1.8	6.4	-3.0	4.2
COc1nc(Nc2ccc([N+](=O)[O-])cc2)nc(NC(C)C)n1	-0.1	·	9.5	i	12.4	-6.4	2.5	5.1	-8.0	2.8
CCCCn1cc(SCC(=O)O)c2ccccc21	0.2	0.689	-11.2	·	-7.6	·	·	·	·	0.1
CCn1c(C)nc2cc(C(=O)NNC(=O)Nc3cccc(Cl)c3)ccc21	0.4	0.6	4.7	i	-5.9	-0.3	-17.5	-11.7	0.9	0.9
O=C(COC(=O)c1cccs1)NC1CCCC1	-1.0	0.64	-24.0	i	-3.8	-0.2	4.1	9.3	-0.3	1.5
O=C(/C=C\Nc1ccc(S(=O)(=O)Nc2ncccn2)cc1)c1ccccc1	·	0.779	-18.9	i	·	-150.3	0.6	7.3	-5.2	-1.0
CC(C)OCCCn1c(SCC(=O)N2CCc3ccccc32)nc2ccccc2c1=O	0.2	0.655	4.4	i	-5.5	-0.6	2.1	5.1	-2.8	1.1
CCC1CCCCN1C(=O)COc1c(Br)cc(Br)c2cccnc12 (centres undefined)	-0.2	0.65	14.3	i	-7.9	3.1	-53.5	-80.8	-16.3	0.4
COc1ccc(CC(=O)N(C)Cc2ccc(OC(F)F)cc2)cc1S(=O)(=O)N1CCOCC1	·	0.669	·	i	·	10.1	0.1	-2.1	1.2	-2.1
NC(=O)COc1ccc2cc(-c3ccccc3)c(=O)oc2c1	-1.2	0.703	-24.0	i	-6.2	-3.0	20.6	11.1	0.8	i
Cc1ccc(S(=O)(=O)NNc2nnc(C)c(=O)[nH]2)cc1	-1.2	0.668	-11.2	i	-3.0	0.5	13.7	4.1	-1.8	-0.2
CCCCn1c(SCC(=O)Nc2ccc3c(c2)OCO3)nc2c1c(=O)n(C)c(=O)n2C	0.4	0.727	-14.1	·	6.4	·	·	·	·	0.4
CN1C(=O)C(O)(C2COC(C)(C)CC2=O)c2ccccc21 (centres undefined)	0.0	0.723	-5.0	·	-12.1	·	·	·	·	5.1
CCOc1cc(/C=N/Nc2cc(C)nc3ccc(C)cc23)ccc1O	-0.9	·	6.9	i	3.2	1.7	-8.0	-3.2	-1.6	·
COc1ccc(OC)c(NC(=O)Nc2ccc3[nH]ccc3c2)c1	0.2	0.66	-14.1	i	-8.2	-0.3	-13.8	-0.8	1.2	2.6
Cc1ccc(C)c(NC(=O)Cc2nc(CCl)cs2)c1	-0.2	0.68	-0.3	·	-3.0	·	·	·	·	0.0
CCOc1ccc(Cc2nc(C)c(CC(=O)N3CCCCC3)c(=O)[nH]2)cc1	-0.4	0.706	9.7	·	-0.4	·	·	·	·	3.7
COc1ccc(N2C(=O)C(CC(=O)Nc3ccccc3)N(Cc3ccc(OC)c(OC)c3)C2=O)cc1 (centres undefined)	0.0	0.679	-5.3	i	0.1	-0.4	9.4	9.2	1.2	1.6
COc1ccccc1-n1c(C)cc(/C=C2/C(=N)N3C(=NC2=O)SN=C3S(C)(=O)=O)c1C	0.6	0.691	-14.5	i	0.1	-1.4	11.8	-0.7	5.0	1.9
CCOC(=O)/C(C(N)=NCCCO)=C(/O)c1ccccc1	-0.9	0.665	-6.7	·	-8.0	·	·	·	·	0.9
Cc1ccc(C(c2nnnn2C2CCCC2)N2CCc3ccccc32)cc1 (centres undefined)	-0.1	0.68	15.3	·	7.9	·	·	·	·	5.0
Cc1ccc(-n2c(C)cc(C(=O)CN3CCOCC3)c2C)cc1C	2.4	0.677	-1.6	i	-4.7	5.9	-3.3	0.5	0.4	2.8
Cc1[nH]nc2c1C1(CCN(C(=O)c3ccccc3)CC1)C(C#N)=C(N)O2	0.1	0.658	-18.4	·	·	·	·	·	·	1.0
CCSCc1nnc(SCC(=O)Nc2cc(F)ccc2C)n1C	-0.9	0.715	-10.8	i	-1.2	-0.4	-0.2	-0.2	-1.4	2.4
COc1ccc(NC(=O)c2ccccc2NC(=O)c2ccco2)cc1	0.4	0.671	-2.1	i	-0.8	9.9	2.6	8.0	-2.7	-10.1
CCc1ccccc1NC(=O)c1ccc(OCc2c(C)noc2C)cc1	0.5	0.642	·	i	-1.0	-0.5	-20.3*	-15.7*	2.8*	-2.2
COCCN1C(=O)/C(=C/c2ccc(N3CCCC3)cc2C)SC1=S	-0.2	0.756	19.8	i	11.8	1.8	18.6	10.6	24.4	7.1
FC(F)(F)c1cccc(-c2nn[nH]n2)c1	-1.3	0.692	-4.9	i	-2.7	-17.5	7.0	-3.1	3.8	-1.0
COc1ccc(N(CC(=O)N2CCCCCC2)S(=O)(=O)c2ccccc2[N+](=O)[O-])c(OC)c1	0.2	0.707	16.7	i	5.9	8.0	-10.7	-19.6	6.5	4.2
Cc1ccc(C(=O)NCCCN2CCOCC2)c(Cl)c1	2.1	0.691	0.7	i	-3.6	1.0	2.7	11.0	5.6	3.9
O=C(COC(=O)Cc1ccc(Br)cc1)Nc1ccc(N2CCOCC2)cc1	-0.3	0.674	·	i	-13.2	-1.5	·	·	·	1.6
Cc1oc2cc3oc(=O)c(CCC(=O)NCCC(=O)O)c(C)c3cc2c1C	0.7	0.63	-6.9	i	1.1	0.3	-2.5	2.9	0.0	-92.8
CC1=C(C(=O)Nc2ccc(C(=O)N3CCN(c4cccc(Cl)c4)CC3)cc2)SCCO1	0.1	0.676	12.6	i	-8.6	9.9	-11.5	-29.2	-2.4	-0.8
CCOC(=O)N1CCN(C(=O)c2ccc3c(c2)N(Cc2cccc(Cl)c2)C(=O)c2ccccc2S3=O)CC1 (centres undefined)	2.8	0.608	23.8	i	·	2.2	-7.1	-9.2	6.5	1.9
CCCCn1nc(C(=O)Nc2ccc3c(c2)OCCO3)c2ccccc2c1=O	-0.5	0.738	·	i	16.4	7.7	·	·	·	2.8
COc1cccc(/C=N/NC(=O)c2ccc(CN3c4cccc5cccc(c45)S3(=O)=O)cc2)c1	-0.2	·	-4.4	i	6.3	2.8	7.5	9.9	3.0	·
O=C(Nc1ccnn1C1CCN(CC(O)CO)CC1)C1CCCC1 (centres undefined)	-0.4	0.734	2.0	i	-1.5	0.1	1.0	8.3	-0.7	0.1
CCCS(=O)(=O)NCCc1cc2ccc(OC)cc2[nH]c1=O	-0.3	0.711	·	i	1.0	-6.3	-2.5	-4.5	0.8	0.6
C[n+]1ccc(C(=O)Nc2ccccc2Cl)cc1	-0.2	0.656	-2.5	i	-6.6	-3.1	19.2	10.3	-0.5	-0.4

These rows are one share of the data; rates above refer to the full screens.
